RN4220 kill: S. aureus RN4220 growth inhibition. inhibition, % (concentration not given with the values). 330,000 tested, 0.33% active. OD600, 16 h;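 active = z-score of -3 or lower and OD600 up to 0.18 on both plates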;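 also: plate controls were untreated cells for no effect and reference antibiotic for full effect; stock transfer was 100 nL into about 80 µL; one replicate is shown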
Mtb hypoxia inh: Mtb hypoxia fluorescent reporter inhibition; fluorescence inhibition, % (no concentration beside the values); M. tuberculosis hypoxia-regulated fluorescent reporter, fluorescence; 300,000 tested, 0.1% active; AID 1159583;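 active = 35 to 45% if threefold the growth effect, above 45% if 1.5-fold the growth effect; inactive = the rest, general growth blockers included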;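 also: wells of about 50 µL received 100 nL stock; 0% = vehicle wells and 100% = reference inhibitor wells; whole bacteria with a GFP reporter of the hypoxia response; strong numbers were not always called active; many hits fall short of the cut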
PrP UTR inh: inhibition of PrP 5' UTR reporter expression; 340,000 tested, 0.35% active; cell-based PrP 5' UTR mRNA reporter, plate reader; AID 488862; inhibition, % (concentration not given with the values);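 active = every replicate at 50% or more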;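 also: 0 = median of the neutral control wells; tested in H4 reporter cells; numbers are from one replicate; inactives centre near -14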
Sa ugtP lethal: growth inhibition of S. aureus ugtP deletion strain. S. aureus RN4220 ugtP deletion, OD600 growth, 16 h; some inactives read as strong as hits. growth inhibition, % (test concentration not listed). 330,000 tested, 0.54% active;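 active = z-score under -3 and OD600 up to 0.15 on both plates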;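 also: plate controls were untreated wells for no effect and antibiotic for full effect; wells of about 80 µL received 100 nL stock; the first replicate is given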
BJeLR viability: BJeLR cell viability loss; AID 1554; BJeLR (HRASV12) viability, CellTiter-Glo ATP luminescence, 48 h; reference of the scale not given here; inhibition, % (no concentration beside the values); 300,000 tested, 0.17% active;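 active = replicate mean above 50%; inconclusive = above 50% but judged a plate artefact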;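 also: 50 nL library stock added to about 25 µL; numbers are from one replicate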
Bead autofluor: flagged as autofluorescent in microsphere protease counterscreen | compound autofluorescence counterscreen, microsphere flow cytometry; active compounds read high | AID 624483 | fluorescence intensity (test concentration not listed) | 360,000 tested, 3.1% active;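 active = at least 3 SD above the mean of all compounds, about 16000 in these data; inconclusive = too few beads counted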;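 also: 100 nL of 1 mM stock went into each well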
Mtb hypoxia inh growth: second read-out of Mtb hypoxia inh, no call of its own (marks repeat the call); growth inhibition, %; measured here: M. tuberculosis growth (absorbance);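 0% = vehicle and 100% = reference antibiotic; read after six days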
An asterisk follows results filed as active; u = inconclusive; x = not tested or not shown.

SMILES	RN4220 kill	Mtb hypoxia inh	Mtb hypoxia inh growth	PrP UTR inh	Sa ugtP lethal	BJeLR viability	Bead autofluor
COc1ccc(C(=O)Cn2nnc(-c3ccccc3NC(=O)C3CC3)n2)cc1	6.6	8.3	-0.9	-5.7	0.0	-5.0	2415
CCCN(CC(=O)Nc1ccccc1C)C(=O)Cc1c(C)nc2ccccc2c1C	6.1	7.7	3.9	2.8	1.7	x	2974
CCOc1ccccc1NC(=O)c1ccccc1N(C)S(C)(=O)=O	2.0	x	x	-3.4	2.7	-11.4	4808
COc1ccc(C(=O)NC(=S)NCc2ccco2)cc1Br	-2.4	-5.2	3.9	-4.2	55.6	1.5	5869
Cc1cc(C)n(N=Cc2ccccc2O)c(=O)c1	2.4	3.7	3.0	x	7.3	x	x
COc1cccc(CN(C)C(=O)CNC(=O)c2sc3ccccc3c2Cl)c1OC	0.8	9.4	2.4	-26.0	9.2	-8.5	u
CCC(C)c1ccc(OCCCCN2CCOCC2)cc1 (configuration not stated)	8.0	x	x	-0.6	32.1	1.0	2750
CC(=Nc1ccccc1O)c1sc2ccccc2c1O	12.9	-1.1	1.6	-93.5	-1.3	15.7	4379
COc1cc(NC(=O)c2ccccc2)c(OC)cc1NC(C)=O	4.1	14.9	2.7	-1.6	9.9	-11.9	4255
OC(COc1ccc2c(c1)CCC2)Cn1cnc2ccccc21 (configuration not stated)	0.8	x	x	-18.5	-5.6	2.0	4630
CCOC(=O)NN=C/C(Cl)=C/c1ccccc1	-5.0	-0.5	2.5	x	-3.9	x	x
O=C(CCS(=O)(=O)c1ccc(Br)cc1)NCc1cccs1	-2.7	x	x	-5.7	12.6	-3.6	4194
CCCc1cc(=O)[nH]c(SCC(=O)c2c(C)[nH]c3ccccc23)n1	8.4	-3.4	1.6	3.5	20.0	-1.6	3585
CCCCC1CC1C(NC(=O)c1ccco1)c1ccc(C(=O)OC)cc1 (configuration not stated)	18.0	8.6	6.8	x	4.1	x	x
COCCNC(=S)N1CCN(C)CC1	3.8	7.2	8.9	-17.2	3.6	6.7	5370
O=C(COc1ccc(Cl)cc1)Nc1ccc(CN2CCOCC2)cc1	2.7	-2.8	-6.3	3.7	9.0	x	2892
O=C(COC(=O)c1cccc(S(=O)(=O)N2CCCC2)c1)NCc1ccccc1	2.0	-1.1	6.3	-17.7	-1.7	1.4	2248
COc1ccc(NC(=O)N2CCCC2C(=O)Nc2ccccc2F)cc1 (configuration not stated)	-1.1	-2.3	-8.8	-1.1	12.6	1.2	4543
O=C(CCC(=O)Nc1ccc(F)cc1)NN=Cc1cccc(Br)c1	-2.7	6.2	-0.6	x	-3.4	x	x
Cc1ccc(S(=O)(=O)N(CC(O)CN2C(=O)NC(C)(C)C2=O)c2cccc([N+](=O)[O-])c2)cc1 (configuration not stated)	1.7	9.1	-1.3	-10.7	-0.3	-0.9	5648
Cn1cccc1/C=C(\C#N)c1ccccc1	3.2	8.2	-1.2	4.9	3.2	12.3	4154
CCOc1ccc(N2C(=O)CC(N(Cc3ccco3)C(C)=O)C2=O)cc1 (configuration not stated)	-0.1	6.1	5.5	-16.1	10.5	-7.7	2700
CCOc1cc(NC(=O)Nc2ccccc2)c(OCC)cc1NC(=O)CC	-0.9	-0.3	9.0	-13.9	4.4	-0.9	4034
CC(C)Cc1nc2sc3c(NCc4ccco4)ncnc3c2c2c1COC(C)(C)C2	6.9	5.0	2.0	0.6	36.8	-11.4	10411
CCc1cc(=O)oc2cc3occ(C)c3cc12	5.3	3.4	-9.4	-17.2	2.7	-7.3	2482
New compounds follow
SMILES	RN4220 kill	Mtb hypoxia inh	Mtb hypoxia inh growth	PrP UTR inh	Sa ugtP lethal	BJeLR viability	Bead autofluor
O=C(COC(=O)c1ccc(NS(=O)(=O)c2cccs2)cc1O)NC1CCCCC1	3.6	16.1	11.1	-10.5	-2.2	0.9	4060
COc1ccc(S(=O)(=O)N2CCOC2CNC(=O)C(=O)NCCc2ccccc2)cc1 (configuration not stated)	-8.9	2.9	4.7	-6.8	0.9	4.1	4661
Cc1cc(C(=O)NC(=S)Nc2ccccc2N2CCCC2)ccc1[N+](=O)[O-]	3.4	9.6	4.0	-13.7	6.1	5.3	2151
Cc1nc2c(C)cccn2c1/C(O)=C1\C(=O)C(=O)N(CCN(C)C)C1c1cccs1 (configuration not stated)	1.5	-9.2	-3.1	-12.9	-4.1	x	3438
COc1ccccc1N(Cc1ccccc1)S(=O)(=O)c1cccc(C(=O)Nc2ncccc2C)c1	2.8	-13.0	5.4	2.5	-5.4	-0.1	6213
COC(=O)c1ccccc1NC(=O)COc1ccccc1[N+](=O)[O-]	5.6	-1.8	3.6	-16.8	3.1	0.4	3747
O=C1CC(c2cccc(Cl)c2)C(n2cncn2)C(=O)C1C1NCCc2ccccc21 (configuration not stated)	-0.4	x	x	-11.6	8.6	14.4	4641
CN(Cc1cccs1)C(=O)CCCc1c[nH]c2ccccc12	5.4	6.0	4.6	-19.6	4.5	2.4	4262
CC(=O)NCCn1c(SCC(=O)c2ccccc2)nc2ccccc2c1=O	-0.5	-3.9	-4.6	-8.2	-5.6	3.4	23027*
CSc1ccccc1NC(=O)CN(C)CC(=O)Nc1ccccc1N1CCOCC1	5.5	7.1	1.1	-13.6	4.9	-2.5	5130
O=[N+]([O-])c1ccc(N/N=C/c2cccc(O)c2O)cc1	x	x	x	-69.2	x	14.9	3465
COc1cc(Cl)c(C)cc1NC(=O)c1ccc2c(SCC(=O)O)c3c(nc2c1)CCCC3	9.8	-6.4	-3.3	-8.0	8.5	5.0	4510
CCOC(=O)c1[nH]cnc1C(=O)Nc1ccccn1	2.9	3.8	14.5	-11.3	-6.3	-3.3	12723
Cc1cc(C)cc(NC(=O)C(=O)NCC2CCCN2S(=O)(=O)c2cccs2)c1 (configuration not stated)	2.9	0.9	2.0	-8.3	4.8	-3.1	u
CC(=NNC(=O)c1cc(-c2cccc(OC(C)C)c2)nc2ccccc12)c1cccnc1	1.0	0.5	7.9	x	10.0	x	x
Cc1cc(C(=O)CSc2ccccc2)cc(C)c1O	8.6	1.5	13.3	x	12.0	4.9	3527
Cc1cccc(NC(=O)c2c(C)nn(-c3ccccc3)c2Cl)c1	3.1	11.8	14.5	-4.5	5.3	0.0	4548
COc1ccccc1NS(=O)(=O)c1cccc(NC(=O)NC2CCCCC2)c1	-0.3	0.5	-2.2	-18.3	-5.3	-5.4	2080
CS(=O)(=O)c1nc(S(=O)(=O)c2ccc(Cl)cc2)c(NCCCn2ccnc2)s1	0.4	-6.0	-4.1	3.2	9.7	1.7	u
Cc1c(OCC(=O)NCc2cccnc2)ccc2c3c(c(=O)oc12)CCCC3	2.5	10.6	4.3	-18.7	2.8	-1.4	5071
O=C(CN1CCN(S(=O)(=O)c2ccc(Cl)s2)CC1)N1CCCCC1	5.6	4.3	0.7	9.1	14.0	x	2870
Cc1cc(NC(=O)Cn2c(=O)oc3ccc(Cl)cc32)no1	2.2	1.7	9.4	-2.7	2.6	6.2	5894
S=C(Nc1ccc2nc(-c3ccccn3)c(-c3ccccn3)nc2c1)N1CCCCCC1	3.7	-2.4	-11.6	-24.2	4.6	9.2	2061
O=C(CSc1nnnn1-c1cccc(Cl)c1)Nc1ccc2c(c1)CCC2	-1.0	-0.9	-9.9	x	-0.3	-1.8	x
Cn1c(=O)c2c(nc(SCc3cccnc3)n2Cc2ccccc2)n(C)c1=O	-1.0	-11.9	-10.5	2.2	-8.2	9.3	7381

One compound at a time, as listed above. Screens in order: RN4220 kill | Mtb hypoxia inh | Mtb hypoxia inh growth | PrP UTR inh | Sa ugtP lethal | BJeLR viability | Bead autofluor
Profile of COc1ccc(S(=O)(=O)N2CCOC2CNC(=O)C(=O)NCCc2ccccc2)cc1 (configuration not stated) → -8.9 | 2.9 | 4.7 | -6.8 | 0.9 | 4.1 | 4661
Profile of O=C(CSc1nnnn1-c1cccc(Cl)c1)Nc1ccc2c(c1)CCC2 → -1.0 | -0.9 | -9.9 | x | -0.3 | -1.8 | x
Profile of CC(=NNC(=O)c1cc(-c2cccc(OC(C)C)c2)nc2ccccc12)c1cccnc1 → 1.0 | 0.5 | 7.9 | x | 10.0 | x | x
Profile of Cc1c(OCC(=O)NCc2cccnc2)ccc2c3c(c(=O)oc12)CCCC3 → 2.5 | 10.6 | 4.3 | -18.7 | 2.8 | -1.4 | 5071

(further entries)
SMILES	RN4220 kill	Mtb hypoxia inh	Mtb hypoxia inh growth	PrP UTR inh	Sa ugtP lethal	BJeLR viability	Bead autofluor
CCOC(=O)Cn1c(COc2ccccc2OC)[n+](C)c2ccccc21	-2.5	-9.1	4.5	x	1.5	-5.5	x
CN(C)c1nc(N(C)C)nc(N(C#N)CN2C(=O)c3ccccc3C2=O)n1	0.2	2.8	1.7	x	-9.7	-1.0	x
CCOC(=O)NCc1ccc(S(=O)(=O)Nc2ccc(C)cc2)cc1	1.0	x	x	-31.9	-3.9	10.5	4160
O=C1C2C3C=CC(C3)C2C(=O)N1N=Cc1cc(Br)cc([N+](=O)[O-])c1O (configuration not stated)	0.8	16.0	12.7	x	-4.4	x	x
Cc1nc2sc(-c3ccccc3)cc2c(=O)[nH]1	5.8	5.8	7.4	6.3	-3.6	-9.8	6080
CCn1nc(C)c(CNCc2cn[nH]c2-c2cc3ccccc3o2)c1C	1.0	15.0	0.2	-15.8	-0.7	-13.3	3456
CC(=O)c1ccc(NC(=O)C(C)OC(=O)C(C)Oc2cccc(C)c2)cc1 (configuration not stated)	7.4	-3.3	-6.2	-15.2	13.4	-8.1	2619
O=C(NCc1nnc2c(C(F)(F)F)cc(Cl)cn12)c1cccs1	1.1	5.9	-5.5	-8.9	2.3	-0.9	4624
COc1ccc(Cl)cc1C(=O)NNC(=O)c1cccc([N+](=O)[O-])c1	x	x	x	-23.8	x	2.7	3584
CN(CC(=O)Nc1ccc(F)cc1)C(=O)CSc1ccc2c(c1)OCCO2	4.9	19.8	44.3	-32.2	3.3	x	8347
BrC(=C\c1ccccc1)/C=N/N1CCN(c2ccccn2)CC1	x	x	x	-19.0	x	-8.9	2220
COc1ccc(C(=O)Nc2ccc(C(C)=NNC(=O)c3ccccc3O)cc2)cc1OC	3.9	6.4	3.8	x	5.0	x	x
COc1ccc(-c2cc(C(=O)OCC(=O)N(C)C3CCS(=O)(=O)C3)c3ccccc3n2)cc1OC (configuration not stated)	6.4	3.1	3.3	-31.8	10.1	1.4	3281
CCC1(C)CN(S(=O)(=O)OCC(Cl)(Cl)Cl)C(=O)N1 (configuration not stated)	7.2	1.7	10.7	-10.1	-2.5	7.0	3496
CC(C(=O)Nc1ccccn1)c1ccccc1 (configuration not stated)	2.8	13.3	-0.1	-5.4	4.4	0.4	x
COc1ccccc1N1CCN(Cc2cc3c(cc2O)OCO3)CC1	3.6	-2.3	-0.3	-59.7	8.6	-3.1	3515
CC(=O)N/N=C/C1=CCC2CC1C2(C)C (configuration not stated)	x	x	x	-21.6	x	-12.2	3217
O=C(Nc1ccc(F)cc1)C1CC(=O)N(Cc2ccco2)C1 (configuration not stated)	-0.2	7.6	-1.5	-24.2	-3.3	16.2	5443
O=C(Nc1cccnc1)/C(N=Nc1c(Cl)cccc1Cl)=C(\O)c1ccccc1	-4.0	15.8	6.6	-75.2	-1.0	-11.8	2204
CCc1nnc(NC(=O)Cc2ccc(OC)c(OC)c2)s1	6.3	4.5	17.3	-14.9	-2.2	1.2	4617
CCn1nc(C)c(/C=N/NC(=O)c2c[nH]c3ccccc23)c1C	x	x	x	-39.1	x	4.4	9391
CC(C)NC(=O)C(=O)NCCCOC(C)C	3.8	10.5	13.5	-11.1	1.8	-1.5	4254
CSc1cnn(-c2ccccc2)c(=O)c1SC	1.8	3.4	-5.3	-4.8	7.2	-11.7	16177*
N#C/C(=C/c1ccc(F)cc1)C(N)=S	0.1	-4.3	-23.6	-13.0	-3.3	1.2	3426
COc1ccc(S(=O)(=O)NCc2cc(-c3ccccc3Cl)no2)cc1	5.8	-9.0	-5.7	-7.6	0.1	-3.0	3609
O=C(NC(=S)NCc1ccccc1)c1ccccc1F	0.4	11.9	0.9	-8.0	4.3	10.1	u
CC(=O)OC(C)=O	3.4	8.9	11.2	-25.4	4.8	x	5573
CCOc1ccc(-n2ccnc2SCC(=O)N2CCCc3ccccc32)cc1	7.0	8.4	-0.4	-12.3	7.8	-26.5	2626
COc1cc(/C=C2/N=C(C3CCCCC3)OC2=O)cc(OC)c1OC	2.6	3.3	9.0	-43.4	0.2	2.6	20975*
Cc1ccc(OCC(=O)n2nc(C)cc2C)c(Br)c1	2.4	10.4	4.3	-7.4	0.2	1.6	11668

From PubChem BioAssay
